Tgondii IFNg – T. gondii growth inhibition with IFN-gamma, primary screen, cell-based; AID 1259416, 2018; activity change, negative = inhibition, %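 (about 20 µM by stock and volumes)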; Toxoplasma gondii growth in IFN-gamma-treated host cells; stronger effect = lower value; reference of the scale not given here; 3.8% of 69,000 active;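 active = below -70%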;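 also: host cells are HeLa cells infected with Toxoplasma gondii; parasite growth read as luciferase light; one replicate is shown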
Starred values were filed as active, the others as inactive. An excerpt; count on the stated rates, not on these rows.

SMILES	Tgondii IFNg
CCc1nn(CC(=O)N2CCCC(c3nc(-c4cccnc4)no3)C2)c(=O)c2ccccc12 (stereo not given)	43
Cc1ccc(N2CCC(N3CCn4cncc4C3)CC2)cc1Cl	-22
O=C(c1cccc(F)c1)N1C[C@H]2[C@@H](c3ccccc31)[C@@H](CO)N2Cc1cocn1	-3
Cc1ccc2c(C(=O)NCc3c(C)n[nH]c3C)cc(C)nc2c1	-7
COc1cccc(NC(=O)N2CC(=O)N3[C@H](CO)[C@@H](c4ccc(C#CCC5CCCC5)cc4)[C@@H]3C2)c1	-46
COc1ccc(CN2C(=O)N(CC(C)C)C3(CCN(C4Cc5ccccc5C4)CC3)C2=O)cc1	6
CCOc1ccc(-c2nc(Cn3c(=O)c4cccnc4n(-c4ccc(OC)cc4)c3=O)c(C)o2)cc1	12
CCOc1ccc(C(=O)Nc2ccc(-c3nc(Cn4cccn4)c(C)o3)cc2)cc1	-99*
CCNC(=O)C(C)Sc1ccc(Cl)cc1 (stereo not given)	-11
CCN(Cc1c(CO)cnc(C)c1O)CC1CCCO1 (stereo not given)	-3
CC(=O)NC1=NN(C(C)=O)C(C)(CS(=O)(=O)c2ccc3ccccc3c2)S1 (stereo not given)	-25
COC(=O)CCN(C(=O)c1cc(OC)c(OC)c(OC)c1)c1ccccn1	9
Cc1cc2c(SCC(=O)N3[C@@H]4CC[C@H]3CNC(=O)C4)ncnc2s1	3
CCCc1nc(C(=O)NCc2cccnc2N2CCN(C)CC2)cs1	-51
COc1ccccc1-c1nc(Cc2noc(-c3ccccn3)n2)c(C)o1	28
O=C(Nc1ccc(F)cc1)N1CC(=O)N2[C@H](C1)[C@H](c1ccc(C3=CCCC3)cc1)[C@@H]2CO	1
CNC(=O)c1ccc(-c2cc(NCCO)nc3[nH]ccc23)s1	10
CCc1ccc2nc3n[nH]c(N)c3cc2c1	45
Cc1ccc(S(=O)(=O)N2CCCC2C(=O)Nc2ncn[nH]2)cc1 (stereo not given)	-18
O=C(O)C(O)c1ccccc1 (stereo not given)	2
COCC(=O)N1CCCC(C(=O)NCc2cnn(-c3ccccc3C)c2)C1 (stereo not given)	2
COc1cccc(CNC(=O)C2=C(C)C(=O)OC23CCN(C(C)=O)CC3)c1OC	27
Cc1nc2nnc3ccc(C(=O)N(C)C)cc3c2n1CC1CCCO1 (stereo not given)	7
O=c1oc2ccccc2n1CCc1nnc(-c2cccc(Cl)c2)o1	13
CC(C)NC(=O)N1CCC2(CC1)OC(C(=O)N(C)Cc1ccccn1)Cn1ccnc12 (stereo not given)	61
COc1ccc(-c2c(C)[nH]n3c(=O)cc(-c4cccnc4)nc23)cc1OC	0
c1ccc(Cc2nc([C@@H]3C[C@H]3c3ccccc3)n[nH]2)cc1	-5
CC(=O)N[C@@H](CSC/C=C(\C)CC/C=C(\C)CCC=C(C)C)C(=O)O	-22
O=C(c1cnccn1)N1CCCC2(CCN(Cc3ccncc3)C2=O)C1 (stereo not given)	6
O=C(CCSc1nnc(-c2ccncc2)o1)Nc1cnc2n1CCCC2	2
Clc1ccc(-c2cc(-c3cccs3)c(-c3ccccc3)o2)cc1	141
CC(C)Cc1cc(C(=O)N(CC#Cc2ccccc2)C2CC2)n(C)n1	-2
Cn1cnnc1CC1CCN(C(=O)c2cccc(Cn3cccn3)c2)CC1	2
Cc1nc(CCNC(=O)C2CCN(S(=O)(=O)c3ccc(Cl)s3)CC2)cs1	8
C/C=C/c1ccc([C@@H]2[C@H](CO)N(CC3CCCC3)C23CN(S(=O)(=O)CC)C3)cc1	86
CCn1cc(-c2cc(C(=O)NCCc3cn(C)c4ccc(Cl)cc34)no2)cn1	32
O=C(NCC(O)c1ccccc1)c1ccc(NC(=O)C2CCC2)cc1 (stereo not given)	7
CCCCc1ccc(S(N)(=O)=O)cc1	-52
Cc1cccc(CN2CCN(Cc3ccc(N(C)C)nc3)CC2)c1	-1
CN(Cc1cc(C(C)(C)C)n[nH]1)Cc1ncc[nH]1	13
CN1C(=O)c2cc(NC(=O)C3CCOCC3)ccc2OC[C@H]2O[C@@H](CC(=O)NCc3ccccc3F)CC[C@@H]21	22
C=CCn1c(=O)c(C(=O)NC2CCCCC2)c(O)c2ccccc21	89
CC(C)N(C)CC1CN(C(=O)c2cscn2)Cc2nccn2C1 (stereo not given)	-8
Cc1ccc(C)c(N2CCN(C(=O)CN3C(=O)CCc4cc(Br)ccc43)CC2)c1	-45
Cc1ccccc1NC(=O)CC(=O)NCCOc1c(C)cccc1Cl	-5
CO[C@H]1CN(C)C(=O)c2ccc(NC(=O)c3cccc(F)c3)cc2OC[C@@H](C)NC[C@@H]1C	47
OCCOc1cccc(CN2CCCC2c2nc(-c3ccccc3)no2)c1 (stereo not given)	9
CCOc1ccc(CNC(=O)C2=C(C)C(=O)OC23CCN(Cc2ccccc2)CC3)cc1	109
Cc1cc(OC(=O)N2CCOCC2)ccc1OC(=O)N1CCOCC1	-19
O=C(C(O)c1ccc(F)cc1)N1CC(c2ccncc2)C1 (stereo not given)	55
Cn1cc(C(=O)O)c(=O)c2ccccc21	-6
O=C1c2ccccc2C2(c3ccccc3)N1CCN2C(=S)Nc1cccc(Cl)c1 (stereo not given)	7
COc1cccc(CNC(=O)c2ccc(C(C)N3CCCCC3)o2)c1OC (stereo not given)	0
CC(C)C(NC(=O)CCc1cccnc1)c1nnc2n1CCNCC2 (stereo not given)	10
CCOC(=O)c1ccc(CN2Cc3ncccc3C2=O)o1	-4
Cc1cc(C)c(CN2CC[C@H](CO)[C@H](O)C2)c(-n2cccn2)c1	2
COc1ccc(CC(NC(C)=O)C(=O)N2CCNCC2)cc1 (stereo not given)	51
COc1ccc(CCn2c(C)nc3c(c(=O)c4ccccc4n3C)c2=O)cc1	44
Cc1ccccc1-c1nc(Cn2c(=O)c3cccnc3n(-c3ccccc3)c2=O)c(C)o1	-50
O=C(Nc1ccccc1)c1cc2n(n1)CCCN(C(=O)c1csnn1)C2	8
(continued)
SMILES	Tgondii IFNg
Cc1ccc(-c2cc3c(=O)n(Cc4nc(-c5ccc(C)cc5)oc4C)ccn3n2)cc1	-45
Cc1ccsc1CN1C[C@@H]2OCC[C@@H]2[C@@H](C(=O)N2CCCC2)C1	-3
CCN(CC)c1nc(C(=O)N2CCC(N3CCCCC3)CC2)nc2nc(C)cc(C)c12	86
C[C@@H]1CN([C@@H](C)CO)C(=O)c2c(c3ccccc3n2C)-c2ccccc2CO[C@@H]1CN(C)C(=O)NC1CCCCC1	-17
NS(=O)(=O)c1cc(Cl)c(Cl)c(S(N)(=O)=O)c1	5
Cc1cc(C)n(CC(C)n2cc(-c3nccn3C)nn2)n1 (stereo not given)	2
COc1ccc(CNC(=O)c2nnn(Cc3nc(-c4ccc(C)cc4)oc3C)c2C)c(OC)c1	-99*
COc1cccc(CCNC(=O)C2CC3CCC2(C)C[C@]32NC(=O)c3ccccc3N2)c1 (stereo not given in full)	-15
O=C(c1ccccn1)N1CC[C@@H]2[C@H]1c1cc(C#Cc3cccnc3)ccc1N[C@@H]2CO	-4
Cc1nnc(NC(=O)C2CCN(c3ncccn3)CC2)s1	2
CC(C)NC(=O)[C@@H]1C[C@@H](N)CN1C(=O)c1cnn2ccccc12	-10
COC(=O)c1cc2n(n1)CCCN(C(=O)C(=O)c1cccnc1)C2	0
Cc1ncc(CN2CCSCC2)c(CO)c1O	-76*
CNC(=O)N1CCc2nc(C(=O)N3CCCCC3)sc2CC1	10
Cc1ccc(C2(O)CC3CCC(C2)N3c2cc(C)nc(N)n2)cc1 (stereo not given)	-35
COc1c(C)cc(-c2ccc(CN)s2)cc1C	135
CCS(=O)(=O)N1CCO[C@]2(CCC[C@H]2COc2cccnc2)C1	161
Cc1ccc(S(=O)(=O)Nc2ccc3c(c2)C(=O)N([C@@H](C)CO)C[C@H](C)[C@@H](CN(C)S(=O)(=O)c2cccs2)OCCCC[C@H](C)O3)cc1	-99*
CC(Cn1cncn1)NCc1nncn1C1CCCCC1 (stereo not given)	1
N[C@@H](CSCCCO)C(=O)O	7

Part of the list above, comma-delimited:
SMILES,Tgondii IFNg
Cc1ccccc1-c1nc(Cn2c(=O)c3cccnc3n(-c3ccccc3)c2=O)c(C)o1,-50
O=C(Nc1ccccc1)c1cc2n(n1)CCCN(C(=O)c1csnn1)C2,8
Cc1ccc(-c2cc3c(=O)n(Cc4nc(-c5ccc(C)cc5)oc4C)ccn3n2)cc1,-45
Cc1ccsc1CN1C[C@@H]2OCC[C@@H]2[C@@H](C(=O)N2CCCC2)C1,-3
CCN(CC)c1nc(C(=O)N2CCC(N3CCCCC3)CC2)nc2nc(C)cc(C)c12,86
C[C@@H]1CN([C@@H](C)CO)C(=O)c2c(c3ccccc3n2C)-c2ccccc2CO[C@@H]1CN(C)C(=O)NC1CCCCC1,-17
NS(=O)(=O)c1cc(Cl)c(Cl)c(S(N)(=O)=O)c1,5
Cc1cc(C)n(CC(C)n2cc(-c3nccn3C)nn2)n1 (stereo not given),2
COc1ccc(CNC(=O)c2nnn(Cc3nc(-c4ccc(C)cc4)oc3C)c2C)c(OC)c1,-99*
COc1cccc(CCNC(=O)C2CC3CCC2(C)C[C@]32NC(=O)c3ccccc3N2)c1 (stereo not given in full),-15
O=C(c1ccccn1)N1CC[C@@H]2[C@H]1c1cc(C#Cc3cccnc3)ccc1N[C@@H]2CO,-4
Cc1nnc(NC(=O)C2CCN(c3ncccn3)CC2)s1,2
CC(C)NC(=O)[C@@H]1C[C@@H](N)CN1C(=O)c1cnn2ccccc12,-10
COC(=O)c1cc2n(n1)CCCN(C(=O)C(=O)c1cccnc1)C2,0
Cc1ncc(CN2CCSCC2)c(CO)c1O,-76*
CNC(=O)N1CCc2nc(C(=O)N3CCCCC3)sc2CC1,10
Cc1ccc(C2(O)CC3CCC(C2)N3c2cc(C)nc(N)n2)cc1 (stereo not given),-35
COc1c(C)cc(-c2ccc(CN)s2)cc1C,135
CCS(=O)(=O)N1CCO[C@]2(CCC[C@H]2COc2cccnc2)C1,161
Cc1ccc(S(=O)(=O)Nc2ccc3c(c2)C(=O)N([C@@H](C)CO)C[C@H](C)[C@@H](CN(C)S(=O)(=O)c2cccs2)OCCCC[C@H](C)O3)cc1,-99*
CC(Cn1cncn1)NCc1nncn1C1CCCCC1 (stereo not given),1
N[C@@H](CSCCCO)C(=O)O,7

(list continues)
SMILES	Tgondii IFNg
CCOc1cccc(CC(=O)N2CCC3(CC2)Nc2cc(F)ccc2-n2cccc23)c1OCC	62
CCOC(=O)CC1CCCCN1Cc1cc(=O)n2cc(Cl)ccc2n1 (stereo not given)	-5
COc1cccc(-c2noc(-c3c(O)c4ccccc4[nH]c3=O)n2)c1	71
CC(NC(=O)c1ccc2c(c1)OCCO2)c1nnc2n1CCNCC2 (stereo not given)	-4
C[C@@H]1CCCCO[C@@H](CN(C)S(=O)(=O)c2ccccc2)[C@@H](C)CN([C@@H](C)CO)C(=O)c2cc(NC(=O)Nc3ccc4c(c3)OCO4)ccc2O1	317
O=c1cc(NCc2ccccc2)[nH]nc1-c1ccccc1	14
O=C(CCC(NC(=O)OCc1ccccc1)C(=O)O)OCc1ccccc1 (stereo not given)	-9
CC(=O)N1C[C@H]2CCCN(c3ncc(C)cn3)[C@H]2C1	16
C[C@@H]1CN([C@H](C)CO)C(=O)CCCn2nncc2CO[C@H]1CN(C)S(=O)(=O)c1ccccc1C#N	-59
O=C(C[C@H]1CC[C@H]2[C@@H](COC[C@H](O)CN2Cc2nccs2)O1)NCc1ccccc1Cl	4
CCOC(=O)CSC1=Nc2ccccc2C2=NC(CCC(=O)NCc3ccc(F)cc3)C(=O)N12 (stereo not given)	1
COc1ccc(-c2ocnc2C(=O)NCCc2ccccc2F)cc1OC	42
CO[C@H]1CN(C)C(=O)c2ccc(NC(=O)C3CC3)cc2OC[C@H](C)N(C(C)=O)C[C@@H]1C	51
Cc1cccc(C(=O)Nc2c(C(=O)NCc3cccnc3)[nH]c3ccc(C)cc23)c1	-20
CCN(CC)C(=S)Sc1nsc(SC(=S)N(CC)CC)c1C#N	62
O=C(c1cc(C2CCN(Cc3cccc(F)c3)CC2)no1)N1CCCCC1	-14
COc1ccc(CCN2C[C@@H]3CCN(C(=O)c4cnc(C)cn4)CC[C@H]3S2(=O)=O)cc1	8
O=C1CC(Nc2cnc3ccccc3n2)CN1CC1CCCCC1 (stereo not given)	-3
Cc1ccc(S(=O)(=O)N2CCC3(CC(C(=O)N(C)C(C)C)=NO3)C2)cc1 (stereo not given)	12
COC[C@@]12CCO[C@H]1CCN(C(=O)COc1ccccc1OC)C2	-5
Cc1occc1C(=O)N1CCc2c(COCc3ccncc3)cncc2C1	-3
Cc1cc2ncc(-c3ccnc(SCCS(=O)(=O)c4ccccc4)n3)c(C)n2n1	-52
CC1CCCN(c2ncc3c(n2)[C@H]2CN(C(=O)c4ccccc4)C[C@@H]2S(=O)(=O)C3)C1 (stereo not given in full)	78
O=c1[nH]c2ccccc2cc1CN1CCc2c([nH]c3ccccc23)C1	-27
Cc1c(C(=O)NCc2cnn(Cc3ccccc3)c2)cnc2ccnn12	2
CCOc1ccc(-c2nc(Cn3nnc(C(=O)Nc4ccccc4OC)c3C)c(C)o2)cc1	32
O=S(=O)(Nc1ccc(F)c(F)c1)c1ccc(F)cc1	6
O=C(Cn1ncc2c(N3CCCC3)ncnc21)NCc1ccc(Br)cc1	61
N#C[C@H]1[C@H](c2ccc(C#Cc3ccc(F)cc3)cc2)[C@H](CO)N1C(=O)Cc1ccncc1	-10
COc1ccc(C2CCCCN2Cc2ncccc2C(=O)O)cc1 (stereo not given)	5
COCC1CN(C(=O)/C=C/c2cccs2)Cc2cncn2C1 (stereo not given)	0
c1ccc(-c2cnn3cc(CN4CCCC4Cn4cccn4)cnc23)cc1 (stereo not given)	34
CCCn1cc(C(=O)N2C[C@H](N)C[C@H]2C(=O)NC)c(C)n1	-10
CCCCCN1C(=O)C2(NCCc3c2[nH]c2ccc(OC)cc32)c2ccccc21 (stereo not given)	16
CC(C)C1=NOC(C(=O)NCc2n[nH]c3c2CCCCC3)C1 (stereo not given)	0
O=C(Nc1ccccc1)c1csc2ccc(Cl)cc12	-64
CC(C)CN1CCN(Cc2ccc(C#CC(C)(C)O)cc2)CC1CCO (stereo not given)	-2
N#C/C(=C/c1ccc(O)c(O)c1)C(=O)NCCCc1ccccc1	3
CC(C)Cn1c(CN2CCC(N)(C(=O)O)C2)nc2ccccc21 (stereo not given)	2

Source: PubChem BioAssay
